Compound activity as filed in PubChem BioAssay.
GLA inh pH 4.5: inhibitors of human alpha-galactosidase A at pH 4.5 | P06280 | purified enzyme, 4-MU-alpha-Gal fluorescence, pH 4.5 | activity change, negative = inhibition, % at 105 µM | 230,000 tested, under 10 active | AID 1467; inconclusive = small, poorly fitted or top-dose-only inhibition, or a rising curve; inactive = flat fitted curve, though single readings scatter; no compound was filed as active;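 further: 0% = full activity with enzyme and -100% = basal without enzyme; dose as in the result columns while the protocol names 77 µM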
miR-21 reporter: raises the signal of a miR-21 reporter; HeLa miR-21 FLuc reporter, luciferase, 48 h; Potency, µM (series often up to 38.3 µM), for inactives: at the highest dose reporter change, positive = more light; 340,000 tested, under 10 active; AID 2288; active = well fitted rising curve with a large enough effect; inconclusive = small, poorly fitted or top-dose-only effect; inactive = no such curve, though single readings can be large or run the other way;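 further: % of control where 0% means no effect; miR-21 action dims this reporter so a rising signal means less miR-21 action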
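HeLa miR-21-FLuc reporter line, endogenous miR-21; 2000 cells/well in DMEM/10% FBS; compound titration up to ~40uM final, 48 h, 37 degree Celsius; luciferase detection reagent, 15 min lysis, CCD luminescence.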
Rango complex inh: Rango-importin beta binding inhibition; Q14974; Rango CFP/YFP FRET sensor + importin beta, 45 min; Potency, µM (series often up to 92.2 µM), for inactives: top-dose inhibition of complex formation; actives 0.031% (n = 340,000); AID 540263; active = rising FRET ratio curve, often small or poorly fitted; inconclusive = mostly compound fluorescence or quenching in the first reads; inactive = flat curves in all reads;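 further: potency means the concentration at half of the fitted maximal effect; 0% = DMSO wells and 100% = buffer wells lacking importin beta; nearly all actives have a fitted effect of over 15% in size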
Target sequence (Q14974 whole entry, looked up): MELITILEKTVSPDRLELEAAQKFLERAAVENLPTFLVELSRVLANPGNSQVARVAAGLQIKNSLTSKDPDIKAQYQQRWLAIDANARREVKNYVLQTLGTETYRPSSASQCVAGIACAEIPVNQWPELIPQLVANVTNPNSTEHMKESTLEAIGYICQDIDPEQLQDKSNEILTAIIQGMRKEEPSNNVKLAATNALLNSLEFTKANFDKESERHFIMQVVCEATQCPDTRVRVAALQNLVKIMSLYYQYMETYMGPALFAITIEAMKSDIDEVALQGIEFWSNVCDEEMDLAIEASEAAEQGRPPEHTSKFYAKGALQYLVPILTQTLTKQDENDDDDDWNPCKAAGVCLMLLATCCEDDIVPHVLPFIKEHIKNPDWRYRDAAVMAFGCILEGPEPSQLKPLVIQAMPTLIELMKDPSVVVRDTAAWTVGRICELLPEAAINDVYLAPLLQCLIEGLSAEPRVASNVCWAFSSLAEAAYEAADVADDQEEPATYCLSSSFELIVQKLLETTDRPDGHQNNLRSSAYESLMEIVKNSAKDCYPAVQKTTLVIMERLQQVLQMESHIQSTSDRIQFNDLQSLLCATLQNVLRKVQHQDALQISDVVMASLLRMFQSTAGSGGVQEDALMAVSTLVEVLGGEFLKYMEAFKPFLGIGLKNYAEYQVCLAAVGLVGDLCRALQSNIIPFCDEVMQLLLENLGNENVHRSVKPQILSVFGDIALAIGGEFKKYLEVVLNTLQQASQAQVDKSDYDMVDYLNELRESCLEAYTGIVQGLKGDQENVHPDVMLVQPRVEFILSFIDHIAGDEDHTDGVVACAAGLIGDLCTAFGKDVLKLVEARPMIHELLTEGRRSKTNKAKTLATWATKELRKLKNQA
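Inhibition scored from the CFP 486 nm/YFP 530 nm FRET ratio 45 min after adding 0.125 microM importin beta to 50 nM Rango biosensor preincubated 5 min with compound (room temperature, PBS with DTT, Tween-20, BSA). No-importin wells as positive control.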
Rango release inh: prevents RanGTP from dissociating the Rango-importin beta complex. AID 540253. Potency, µM (doses to about 46.1 µM), without a hit: at the top dose activity change, negative = inhibition. Biochemical FRET Rango-importin beta, RanGTP-induced dissociation. O95149+P62826. actives 0.071% (n = 340,000); active means falling FRET ratio curve, often poorly fitted, with flat reads before Ran was added; inconclusive means other falling curves, or compound fluorescence or quenching; inactive means flat or rising ratio curve;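 further: potency means the concentration at half of the fitted maximal effect; % of control where 0% means no effect; nearly all actives have a fitted effect of over 45% in size; -100% = wells without RanGTP and RCC1; the record marks most hits as doubtful in a second field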
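Compounds sat 5 min at room temperature with 0.1 uM Rango biosensor plus 0.25 uM importin beta, then FRET pre-read. RanGTP-RCC1 (0.6 uM Ran, 2mM GTP, 0.2 uM RCC1) added for 45 min, and the CFP/YFP post-read measured blocked complex dissociation.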
An asterisk follows results filed as active; ? = inconclusive; . = not tested or not shown; & = joins results of further samples; [ ] = remark or other dose. Some of the compounds tested; rates above refer to the full screens.

SMILES	GLA inh pH 4.5	miR-21 reporter	Rango complex inh	Rango release inh
O=c1c2ccccc2n(Cc2ccc(Cl)cc2)c(=O)n1Cc1ccco1	3	-5%	-1.8%	-13%
CCOC(=O)C1=CN(Cc2cccc(F)c2)S(=O)(=O)N(C)C1c1ccc2ccccc2c1 (stereo not given)	.	.	-0.9%	9%
CSc1ccccc1Sc1cc(C(=O)O)c2ccccc2n1	-2	-11%	0.1%	-2%
COc1ccc(Nc2cc(=O)n(-c3ccccc3)c3c2c(=O)n(C)c(=O)n3C)cc1	6	-13%	-1.6%	5%
CCOc1ccc(-c2nnc(NC(=O)Cc3ccc(OC)cc3)o2)cc1	.	-9%	0.1%	-2%
O=C(Cc1c(Cl)cccc1Cl)OCC(=O)N1CCN(C(=O)c2ccco2)CC1	0	-3%	1.4%	-4%
O=C(Nc1ccc(Br)c(Cl)c1)c1ccco1	5	-46%	2.3%	3%
Cc1cc(OC(=O)c2cccc([N+](=O)[O-])c2)c(C)cc1CN1CCOCC1	.	0%	0.7%	9%
CCc1c(O)nc(SCC(=O)N(CC)CC)[nH]c1=O	-7	4%	0.5%	1%
CCN1CCN(c2ccc(S(=O)(=O)N3CCCCC3)cc2NC(=O)CCNC(C)=O)CC1	.	.	-0.3%	1%
CCOc1ccc(NC(=O)CCSc2nc3c(c(CC)c2C#N)C(=O)CC(C)(C)C3)cc1	-7	4%	-5.2%	9%
O=C(Nc1ccc(N2CCN(C(=O)c3ccco3)CC2)c(Cl)c1)c1cccs1	16	16%	-1.4%	-9%
COc1cccc([C@@H]2Oc3ccc(OC)cc3C(=O)[C@H]2OC(=O)Nc2cc(OC)c(OC)c(OC)c2)c1	-12&-7	-35%	-0.3%	1%
CSCCC(=O)N1CCCC(CO)(CCCc2ccccc2)C1 (stereo not given)	.	0%	3.1%	-2%
COc1ccc(Oc2c(C)oc3c(CN4CCOCC4)c(O)ccc3c2=O)cc1	4	-4%	0.5%	2%
O=C(Nc1ccc(F)cc1F)N1CCCCC1c1cccnc1 (stereo not given)	3	-14%	-1.4%	0%
Cc1cc(C)nc(NS(=O)(=O)c2ccc(NC(=S)NC(=O)c3ccco3)cc2)n1	-8	-11%	0.9%	2%
O=C(NCc1ccccc1Cl)C(=O)c1cn(CC(=O)N2CCOCC2)c2ccccc12	.	-1%	0.2%	3%
COc1ccc(CC(=O)OCCc2cc3cc(OC)c(OC)cc3c(=O)o2)cc1	.	.	-2.2%	-7%
Cc1ccc(/C(O)=C2\C(=O)C(=O)N(CCN(C)C)C2c2ccccc2F)cc1 (stereo not given)	8	-5%	2.9%	-3%

Sorted by heavy-atom count (ascending): some entries from above.
SMILES	GLA inh pH 4.5	miR-21 reporter	Rango complex inh	Rango release inh
O=C(Nc1ccc(Br)c(Cl)c1)c1ccco1	5	-46%	2.3%	3%
CCc1c(O)nc(SCC(=O)N(CC)CC)[nH]c1=O	-7	4%	0.5%	1%
CSc1ccccc1Sc1cc(C(=O)O)c2ccccc2n1	-2	-11%	0.1%	-2%
O=C(Nc1ccc(F)cc1F)N1CCCCC1c1cccnc1 (stereo not given)	3	-14%	-1.4%	0%
O=c1c2ccccc2n(Cc2ccc(Cl)cc2)c(=O)n1Cc1ccco1	3	-5%	-1.8%	-13%
Cc1cc(OC(=O)c2cccc([N+](=O)[O-])c2)c(C)cc1CN1CCOCC1	.	0%	0.7%	9%
O=C(Nc1ccc(N2CCN(C(=O)c3ccco3)CC2)c(Cl)c1)c1cccs1	16	16%	-1.4%	-9%
Cc1cc(C)nc(NS(=O)(=O)c2ccc(NC(=S)NC(=O)c3ccco3)cc2)n1	-8	-11%	0.9%	2%
COc1ccc(Nc2cc(=O)n(-c3ccccc3)c3c2c(=O)n(C)c(=O)n3C)cc1	6	-13%	-1.6%	5%
O=C(NCc1ccccc1Cl)C(=O)c1cn(CC(=O)N2CCOCC2)c2ccccc12	.	-1%	0.2%	3%
CCOC(=O)C1=CN(Cc2cccc(F)c2)S(=O)(=O)N(C)C1c1ccc2ccccc2c1 (stereo not given)	.	.	-0.9%	9%
COc1cccc([C@@H]2Oc3ccc(OC)cc3C(=O)[C@H]2OC(=O)Nc2cc(OC)c(OC)c(OC)c2)c1	-12&-7	-35%	-0.3%	1%

(more compounds)
SMILES	GLA inh pH 4.5	miR-21 reporter	Rango complex inh	Rango release inh
CN(C)C(CNS(=O)(=O)c1ccc(Cl)cc1F)c1ccco1 (stereo not given)	.	.	7.5%	-1%
N#Cc1ccc(CSCC(=O)NN=C2CCCC2)cc1	-3	-6%	2.0%	-13%
COc1ccc2[nH]c3c(c2c1)CCN1C(=O)C(CC(=O)NCCCn2ccnc2)C[C@H](C(=O)N2CCOCC2)[C@@]31CCC1CCCC1 (stereo not given in full)	.	.	-0.9%	-16%
NC(=O)COC(=O)c1ccc(C(=O)C(=O)c2ccccc2)cc1	-1	4%	0.5%	-6%
CN1CCN(C(=O)/C(=C/c2ccccc2F)NC(=O)c2ccccc2)CC1	.	-1%	0.1%	3%
O=C(CCNC(=O)c1ccccc1Cl)Nc1ccc(Cl)c(C(F)(F)F)c1	-9	-5%	0.3%	2%
Clc1ccc(-c2nnc(-c3ccccc3)nc2-c2c[nH]c3ccccc23)cc1	-3	-2%	-2.1%	-14%
CC(=O)N1C(C)(C)CC(=NOC(=O)c2ccccc2)CC1(C)C	17	-1%	0.9%	2%
Cc1ccc(CC(=O)Nc2ccc(S(=O)(=O)N3CCOCC3)cc2)cc1C	.	.	1.2%	-1%
CC(=O)c1ccc(OCC(O)CN2CCN(CCO)CC2)cc1 (stereo not given)	4	-4%	-1.4%	-9%
CCc1ccc(NC(=O)CSc2ccc(-c3ccccn3)nn2)cc1	.	-1%&5%	-0.2%	2%
CCOc1ccc(NN=C(C(=O)OC)C(=O)OC)c([N+](=O)[O-])c1	-9	-2%	0.1%	5%
CCCOc1ccc(NC(=O)OC2CCN(C)CC2)cc1	0	-22%	0.6%	0%
CCN1CCN(C(=O)C(C)Oc2ccc(S(=O)(=O)N3CCCC3)cc2C(N)=O)CC1 (stereo not given)	.	.	8.2%	0%
CCc1n[nH]c(=S)n1/N=C/c1ccc(-c2ccc(Br)cc2)o1	.	.	-0.8%	-6%
CCn1cc(C(=O)O)c(=O)c2cc(F)c(N3CCN(C(=S)Nc4ccccc4OC)CC3)cc21	4	2%	-1.3%	16%
O=[N+]([O-])c1cc(Cl)cc(/C=N\Nc2ccccn2)c1O	-4	9%	3.6%	1%
Cc1cc(C(=O)Nc2ccc(Cl)cc2)c2ccccc2n1	.	1%	0.3%	1%
CCn1cc([C@@H]2C[C@H]3CN(Cc4cccc(Cl)c4)C(=O)[C@]34CCCN24)cn1	2	0%	0.5%	-5%
CCC(NC(=O)Nc1nccs1)(C(F)(F)F)C(F)(F)F	6	8%	-1.2%	-13%
CCOc1ccc(NC(=O)CN(c2ccc(OC)c(OC)c2)S(=O)(=O)c2ccc(C)cc2)cc1	.	-3%	2.1%	0%
COc1ccc(OC)c(C(=O)NC(CC(N)=O)c2ccc(N3CCN(c4ccc(F)cc4)CC3)c([N+](=O)[O-])c2)c1 (stereo not given)	.	5%	?	19%
CC1(NC(=O)NCc2ccco2)CCS(=O)(=O)C1 (stereo not given)	3	0%	-0.2%	16%
O=C(Nc1c(-c2ccccc2)nc2ccc(Cl)cn12)c1cccs1	4	-23%	1.3%	-9%
CC(C)(C)OC(=O)NCCc1nnc(SCC(=O)Nc2ccc(Br)cc2)o1	4	0%	0.7%	11%
COc1cccc(C2CC(c3ccccc3Cl)n3nc(N)nc3N2)c1 (stereo not given)	-1	1%	0.1%	-11%
Cc1ccc(S(=O)(=O)NC(=O)NCCc2ccccc2)cc1	-3[21.1 µM]	0%	-2.2%	-8%
Cc1cc(N/N=C/c2ccc([N+](=O)[O-])o2)nc2ccccc12	-11	-16%	9.2%	-9%
CCN(CC)S(=O)(=O)c1ccc(N2CCOCC2)c(NS(=O)(=O)c2cccs2)c1	.	.	-3.8%	1%
COC(=O)c1c(-c2c(Cl)cccc2Cl)noc1C(=O)NNC(=O)N(C)C	-3	-4%	-0.1%	-5%
COc1ccc(CN2c3c(Br)cccc3C(=O)CS2(=O)=O)cc1	.	.	0.0%	3%
COc1cc(-c2nnc(SCC(=O)c3ccc(C)cc3)o2)cc(OC)c1OC	-12	0%	0.0%	-17%
COc1ccc(-c2nc(C#N)c(NCC3CCCO3)o2)cc1OC (stereo not given)	3	-61%	5.5%	2%
CCCCCN1C(=O)/C(=C/c2c(N3CCc4ccccc4C3)nc3ccccn3c2=O)SC1=S	.	.	?	-14%
CC(=O)Cn1ncc(N2CCOCC2)c(Cl)c1=O	.	-4%	-2.0%	-1%
COc1ccc2c(c1)cc(C(=O)N[C@@H](Cc1ccccc1)C(=O)O)n2C	.	2%	1.5%	0%
COc1ccc(OC)c(C(=O)c2coc3ccc(OCC(=O)O)cc23)c1	4	-2%	-1.7%	38%
Cc1[nH]n(-c2ccccc2)c(=O)c1C=Nc1ccc(S(N)(=O)=O)cc1	0	-6%	-0.5%	-6%
CC(C)N(Cc1ccccc1)C(=S)NCCN1CCOCC1	4	-2%	-0.5%	2%
Cc1ccccc1OCCNc1cc(N2CC(C)NC(C)C2)ccc1[N+](=O)[O-] (stereo not given)	-14	?	2.4%	-7%
CC1CN(Cc2ccccn2)CCC1=O (stereo not given)	-10	-3%	0.0%	-10%
O=C(CCNC(=O)c1ccccc1Cl)NCc1ccco1	.	.	-3.6%	-3%
O=C(Nc1cccc(C(F)(F)F)c1)c1ccc(-n2cncn2)nc1	-6	15%	0.9%	-6%
CCCCn1c(-c2ccoc2C)n[nH]c1=S	-3	1%	-2.7%	11%
COc1cc2c(cc1OC)CN(C(=O)CCNC(=O)c1ccc(Br)cc1)CC2	.	.	0.4%	-8%
O=C(N[C@@H](Cc1ccccc1)C(=O)Nc1ccc(F)cc1)C1CCNCC1	.	-1%	-2.5%	21%
CCc1cccc(NC(=S)N(CCOC)C2CCN(C(C)=O)CC2)c1	.	0%	0.9%	0%
CC12C=CC(=O)C=C1C(F)CC1C3CCC(O)(C(=O)CO)C3(C)CC(O)C12F (stereo not given)	.	.	-3.7%	-15%
CCOC(=O)N1CCN(C(=O)c2sc3nc(-c4ccc(F)cc4)cn3c2C)CC1	-3	1%	-3.9%	6%
CC1=C(C#N)C(c2cccnc2)C2=C(CC(c3ccc(Cl)cc3)CC2=O)N1 (stereo not given)	?	-1%	?	-17%
COc1ccc(OCc2nnc(SCC(N)=O)n2-c2ccccc2OC)cc1	-4	0%	-2.2%	10%
CCOCCCNCc1ccc(OCc2ccc(F)cc2)c(OC)c1	13	-11%	5.3%	-9%
C=CCc1cc(C(=O)N2CCCCC2)ccc1O	0	5%	1.6%	22%
Cc1cccc(NS(=O)(=O)c2ccc(C(=O)N3CCCCCC3)cc2)c1C	.	.	5.2%	0%
COc1ccc(C(=O)ON=C2CCN(C)CC2)cc1	4	0%	-3.9%	9%
c1csc(-c2nc3c4ccccc4c4ccccc4c3[nH]2)c1	14	20%	1.9%	-3%
CCCn1c(SCC(=O)NC2CCCC2)nnc1-c1ccccn1	8	0%	-1.4%	1%
COCCCn1c(SCc2ccccc2)nc2cc(OC)c(OC)cc2c1=N	-2	2%	-0.6%	2%
CCOC(=O)c1[nH]c(C)c(CC(C)C)c1C	-7	-32%	4.3%	0%
CCOC(=O)C1CCN(c2c(NC3CCCCCCC3)c(=O)c2=O)CC1	4	-15%	5.6%	?
COc1ccc(Cl)cc1NC(=O)NCC1CCN(Cc2ccccc2F)CC1	.	?	1.9%	12%
CCN(CC(=O)NCc1ccc(F)cc1)C(=O)/C=C/c1cc(OC)ccc1OC	.	-5%	-1.1%	-19%
CC(=O)CC(c1ccc([N+](=O)[O-])cc1)c1c(O)c2ccccc2oc1=O (stereo not given)	-19	0%	-0.3%	6%

Only Rango complex inh and Rango release inh, for some of the entries so far:
Compound | Rango complex inh | Rango release inh
Cc1cc(C(=O)Nc2ccc(Cl)cc2)c2ccccc2n1 | 0.3% | 1%
O=[N+]([O-])c1cc(Cl)cc(/C=N\Nc2ccccn2)c1O | 3.6% | 1%
